# MARV entry inh: qHTS for inhibitors of binding or entry into cells for Marburg Virus; Marburg virus pseudotyped entry inhibition, cell reporter; control for the full effect not named in the record; about a third of the inactives were read at about 46 µM; Potency, µM (top dose mostly 37.8 µM), inactives show at the highest dose activity change, negative = inhibition, most hits filed as inhibitors; actives 1.8% (n = 300,000); AID 540276, 2011; active = well fitted inhibition curve with a large enough effect; inconclusive = small, poorly fitted or top-dose-only effect, or effect the other way; inactive = flat fitted curve, though single readings scatter; tested in HEK293 cells; about a fifth of its hits are not listed in these tables; note: % is set by controls: 0 for no effect and ±100 for the full control effect; luciferase read-out
# NS1 function inh: qHTS Assay for Inhibitors of Influenza NS1 Protein Function; Potency, µM (doses to about 46.1 µM), inactives show at the top dose activity, positive = more growth; S. cerevisiae slowed by influenza A NS1, growth recovery by OD600; actives 0.4% (n = 270,000); note: actives are rising curves; nearly all actives have a fitted effect of over 50% in size
#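 Recovery from NS1-induced slow growth read by OD600 in budding yeast switched to galactose assay medium (pH 6.0, -URA) at 1:100 dilution. Compound 23 nl per well; the matching strain lacking NS1 serves as control.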
# Lassa entry inh: qHTS for Inhibitors of binding or entry into cells for Lassa Virus. Lassa virus pseudotype entry inhibition, cell reporter; control for the full effect not named in the record. Potency, µM (highest dose often 37.9 µM), for the others: at the top dose activity change, negative = inhibition, most hits filed as inhibitors. actives 1.2% (n = 300,000); active means well fitted inhibition curve with a large enough effect; inconclusive means small, poorly fitted or top-dose-only effect, or effect the other way; inactive means flat fitted curve, though single readings scatter; tested in HEK293 cells; note: % is set by controls: 0 for no effect and ±100 for the full control effect; nearly all actives have a fitted effect of over 50% in size; luciferase read-out
# Cruzain Triton: qHTS Assay for Promiscuous and Specific Inhibitors of Cruzain (with detergent); Cruzipain (Trypanosoma cruzi), P25779; purified cruzain, Z-FR-AMC fluorescence, 0.01% Triton; Potency, µM, without a hit: max response, negative = inhibition, actives largely listed as inhibitors; actives 0.43% (n = 200,000); AID 1478, 2009; active = well fitted curve in the direction sought with a large enough effect; inconclusive = small, poorly fitted or top-dose-only effect, or another doubt; inactive = no such curve, though single readings can be large; an effect the other way counts as inactive or inconclusive;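 note: plate controls were neutral wells for no effect and buffer without enzyme for full effect; nearly all actives have a fitted effect of over 40% in size; top concentration of the series not given in the record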
# Target sequence (P25779 123-467 limits assumed): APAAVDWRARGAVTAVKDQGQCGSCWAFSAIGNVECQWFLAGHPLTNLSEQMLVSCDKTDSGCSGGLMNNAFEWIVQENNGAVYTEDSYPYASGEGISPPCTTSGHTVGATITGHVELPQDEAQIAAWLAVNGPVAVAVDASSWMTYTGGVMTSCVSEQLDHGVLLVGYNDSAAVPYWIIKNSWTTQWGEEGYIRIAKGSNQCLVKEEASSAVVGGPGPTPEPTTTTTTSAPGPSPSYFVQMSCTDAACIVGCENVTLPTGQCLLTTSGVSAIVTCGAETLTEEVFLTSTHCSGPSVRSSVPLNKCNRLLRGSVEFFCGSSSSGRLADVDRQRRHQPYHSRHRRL
#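 Sodium acetate buffer (100 mM, pH 5.5) containing 5 mM DTT and 0.01% Triton X-100 hosted 1.5 nM cruzain and test compound for 15 min at room temperature. Cleavage of 2 uM Z-FR-AMC was then tracked by fluorescence.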
# Cruzain inh noDet: qHTS Assay for Promiscuous and Specific Inhibitors of Cruzain (without detergent) | purified cruzain, Z-FR-AMC fluorescence, no detergent | Potency, µM, for inactives: max response, negative = inhibition, usual class: inhibitors | actives 2.3% (n = 200,000); active = well fitted curve in the direction sought with a large enough effect; inconclusive = small, poorly fitted or top-dose-only effect, or another doubt; inactive = no such curve, though single readings can be large; an effect the other way counts as inactive or inconclusive;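 note: plate controls were enzyme without inhibitor for no effect and buffer without enzyme for full effect; nearly all actives have a fitted effect of over 40% in size; top concentration of the series not given in the record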
#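 Detergent-free condition (0.00005% Triton X-100) in acetate buffer pH 5.5 with DTT. 1.5 nM enzyme and compound were pre-mixed 15 min, then 2 uM Z-FR-AMC substrate added; reaction progress from fluorescence change between first and third reads (60 s).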
# RE007 growth inh: qHTS Assay for Inhibitors of the HIV-1 protein Vpr. actives 0.21% (n = 360,000). S. pombe RE007 Vpr strain, BacTiter-Glo ATP luminescence, 24 h; control for the full effect not named in the record. Potency, µM (doses to about 92.2 µM), without a hit: top-dose activity change, negative = less growth; active = well fitted falling curve with a large enough effect; inconclusive = small, poorly fitted or top-dose-only effect; inactive = no such curve, though single readings can be large or run the other way;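 note: % is set by controls: 0 for no effect and ±100 for the full control effect; nearly all actives have a fitted effect of over 50% in size; the assay follows cell death caused by Vpr and the record does not say whether a fall means rescue or toxicity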
#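 Fission yeast RE007 carrying one integrated HIV-1 vpr copy, seeded at OD 0.01 in PMG+AL medium with 23 nL pinned compound. Grown 24 h at 30 degrees; viability read by BacTiter-Glo luminescence after 5 min.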
# StopGo reporter: High Throughput Screening for Foot and Mouth Disease Virus Antivirals. human cells with a luciferase reporter of 2A StopGo recoding; control for the full effect not named in the record. Potency, µM (top dose mostly 57.9 µM), for the others: top-dose signal change, negative = less light. actives 1.2% (n = 410,000); active = well fitted falling curve with a large enough effect; inconclusive = small, poorly fitted or top-dose-only effect; inactive = no such curve, though single readings can be large or run the other way; tested in HEK293T cells; note: % is set by controls: 0 for no effect and ±100 for the full control effect; nearly all actives have a fitted effect of over 45% in size; luciferase light after 4 h
# SARS PLpro yeast: qHTS of Yeast-based Assay for SARS-CoV PLP. AID 485353, 2010. Potency, µM (series often up to 32.9 µM), for inactives: top-dose activity, positive = growth rescue. actives 0.19% (n = 330,000). S. cerevisiae expressing SARS-CoV PLpro, growth rescue; control for the full effect not named in the record; note: 0% is about no effect; nearly all actives have a fitted effect of over 55% in size; growth read by luminescence after 48 h
# Numbers without * were called inactive; ? = inconclusive; . = no result given; [ ] = another dose, or the depositor's remark. Unless noted, calls come from the whole dose curve; as a rule, active means well fitted rising curve with a large enough effect; inconclusive means small, poorly fitted or top-dose-only effect; inactive means no such curve, though single readings can be large or run the other way. Potency is the fitted concentration of half-maximal effect. Rows are unselected, and some 4.5% of all compounds hit somewhere here.
# The line under a structure holds: RE007 growth inh | Lassa entry inh | Cruzain Triton | MARV entry inh | Cruzain inh noDet | SARS PLpro yeast | NS1 function inh | StopGo reporter
Cc1ccccc1-n1c([C@@H]2C[C@H]2c2ccccc2)n[nH]c1=S
 : -6% | -9% | . | 12% | . | 0% | 3% | -18%
COc1ccc(S(=O)(=O)c2cnc(SCC(=O)Nc3cc(F)ccc3C)[nH]c2=O)cc1Cl
 : . | -7%[46.1 µM] | -23% | 1%[46.1 µM] | 30% | . | . | -12%
COC(=O)c1sc2nc(SCc3cccc(Cl)c3)n(N)c(=O)c2c1C
 : 6% | ? | -12% | 5% | ? | ? | 10% | -3%
Cc1cc2oc(C(=O)Nc3c(C)n(C)n(-c4ccccc4)c3=O)c(C)c2cc1Cl
 : -9% | -6% | -3.9% | -15% | 4% | 4% | -15% | -30%
CCn1cc(C(=O)O)c(=O)c2cc(F)c(N3CCN(C(=S)NC(=O)c4cccc(C)c4)CC3)cc21
 : -17% | 4% | . | 2%[46.1 µM] | . | 2% | -2% | -16%
Cc1ccc(Nc2nc(NCC3CCCO3)nc(N)c2[N+](=O)[O-])cc1 (stereo not given)
 : 1% | -8% | -5.2% | 4% | 14% | -17% | -6% | -14%
Cc1c(NC(=O)c2c([N+](=O)[O-])cnn2C)c(=O)n(-c2ccccc2)n1C
 : 10% | 9%[46.1 µM] | . | -3%[46.1 µM] | . | 1% | 9% | -4%
COc1c(Cl)ccc(Cl)c1C(=O)NC(=S)N1CCOCC1
 : -9% | 23%[46.1 µM] | . | 19%[46.1 µM] | . | 0% | 7% | -14%
O=C(CCSc1ccccn1)Nc1ccc(Br)cc1
 : 27% | ? | -5.6% | ? | -9% | -15% | -19% | 0%
N#Cc1ncc(Cl)c2ccccc12
 : 11% | . | . | . | . | 0% | 10% | 12%
Cc1ccc(C(=O)O/N=C(\N)c2nonc2N)cc1
 : ? | 18% | -0.6% | 1% | -9% | -12% | -6% | 5%
CCN(CC)c1nc(Nc2ccc(Cl)cc2)nc(OCC#N)n1
 : -6% | -4% | -30% | ? | -4% | 3% | 0% | ?
CC(=NCCN1CCNCC1)C1=C(O)CC(C)(C)CC1=O
 : 0% | 5% | 6.8% | 0% | 1% | -1% | 3% | .
CCOC(=O)C(C)Sc1nnc2n1C(C)(C)Cc1ccccc1-2 (stereo not given)
 : -4% | 3% | -9.1% | 7% | 11% | 6% | -14% | -21%
COc1ccc2[nH]c(=O)c(C(c3nnnn3C3CCCC3)N(C)C3CCCCC3)cc2c1 (stereo not given)
 : 11% | 2% | -5.8% | 5.2µM* | -6% | -1% | -3% | 33%[activator]
CCOC(=O)c1ccc(NC(=O)Oc2ccccc2)cc1
 : 7% | 3% | -3.3% | -15% | 0% | 3% | -10% | 3%
NC(=O)c1nsc(C(=O)N(CC(=O)NC2CCCC2)c2cccc(C(F)(F)F)c2)c1N
 : 14% | 9% | . | 11% | . | 14% | ? | -12%
O=C(Nc1nc2c(F)c(F)c(F)cc2s1)c1ccco1
 : -29% | -21%[46.1 µM] | . | ? | . | -7% | -16% | 18%
CCN(CC)CCNC(=O)c1cc2c(=O)[nH]c3ccc(C)cc3c2s1
 : . | 17%[46.1 µM] | 7.2% | 8%[46.1 µM] | 2% | . | . | 0%
O=C(CSc1ccc(-c2ccccc2)nn1)NCc1ccco1
 : -2% | -2% | -1.1% | ? | 6% | -2% | 1% | -7%

# Ordered by molar mass (high to low): some entries from above
# The line under a structure holds: RE007 growth inh | Lassa entry inh | Cruzain Triton | MARV entry inh | Cruzain inh noDet | SARS PLpro yeast | NS1 function inh | StopGo reporter
Cc1cc2oc(C(=O)Nc3c(C)n(C)n(-c4ccccc4)c3=O)c(C)c2cc1Cl
 : -9% | -6% | -3.9% | -15% | 4% | 4% | -15% | -30%
COC(=O)c1sc2nc(SCc3cccc(Cl)c3)n(N)c(=O)c2c1C
 : 6% | ? | -12% | 5% | ? | ? | 10% | -3%
CCN(CC)CCNC(=O)c1cc2c(=O)[nH]c3ccc(C)cc3c2s1
 : . | 17%[46.1 µM] | 7.2% | 8%[46.1 µM] | 2% | . | . | 0%
CC(=NCCN1CCNCC1)C1=C(O)CC(C)(C)CC1=O
 : 0% | 5% | 6.8% | 0% | 1% | -1% | 3% | .
Cc1ccc(C(=O)O/N=C(\N)c2nonc2N)cc1
 : ? | 18% | -0.6% | 1% | -9% | -12% | -6% | 5%

# Next entries.
# The line under a structure holds: RE007 growth inh | Lassa entry inh | Cruzain Triton | MARV entry inh | Cruzain inh noDet | SARS PLpro yeast | NS1 function inh | StopGo reporter
COc1cc(C(=O)Nc2cccc(C(C)=O)c2)cc(OC)c1OC
 : 1% | . | . | . | . | -1% | -2% | -7%
COc1ccccc1OCC(=O)N1CCCC(Nc2cccc(F)c2)C1 (stereo not given)
 : 6% | -3% | . | 3% | . | 3% | 4% | -16%
CC(c1cccnc1)N(C(=O)Nc1ccccc1)C1CCCCC1 (stereo not given)
 : -7% | . | 6.1% | . | -3% | -4% | -99% | 1%
CO/N=C/c1ccc(Oc2ccc([N+](=O)[O-])cc2[N+](=O)[O-])c(OC)c1
 : -10% | ? | -2.3% | ? | -24% | -16% | ? | -7%
Cc1cccc(NC(=O)N2CCN(Cc3ccc(Cl)cc3)CC2)c1
 : -7% | ? | . | ? | . | -1% | . | -28%
CN(C)c1ccc(CN2CC=C(c3ccc(F)cc3)CC2)cc1
 : -9% | ? | -2.5% | ? | 5% | 2% | -15% | -29%
O=C(OCC(=O)N1CCC(Cc2ccccc2)CC1)c1ccc(CO)cc1
 : -5% | -15% | . | ? | . | 0% | . | ?
COc1cccc(NC(=O)CSc2nnc(Cn3cnc([N+](=O)[O-])n3)n2C)c1
 : -6% | ? | -0.4% | -2% | 0% | 4% | 11% | 16%
COCc1nnc(NC(=O)c2cccc(NC(=O)c3ccccc3)c2)s1
 : 13% | -6% | . | ? | . | 3% | 6% | -10%
CN(C)CCCN(C(=O)c1ccc(S(=O)(=O)N2CCCCCC2)cc1)c1nc2cc3c(cc2s1)OCCO3
 : 1% | 14µM* | . | ? | . | -4% | . | 1%
COc1ccccc1NC(=O)Nc1nn(C)c2cccc(N(C)C)c12
 : 1% | ? | . | ? | . | -6% | -36% | -11%
N#Cc1c2c(c(NCc3cccnc3)n3c1nc1ccccc13)CCC2
 : -17% | -3% | 1.2% | ? | 14% | -4% | -8% | 6%
O=C1CCCC/C1=C/Nc1cccc(C(F)(F)F)c1
 : 5% | 0% | . | 1% | . | -2% | -1% | 37%[activator]
Cc1cc(NC(=O)C2CC(=O)OC2c2ccccc2)no1 (stereo not given)
 : 11% | 2% | 3.0% | 14% | 5% | 3% | -1% | -9%
COc1ccc(C2NC(=O)NC(C)=C2C(=O)OCc2ccccc2)cc1 (stereo not given)
 : 5% | ? | . | ? | . | -5% | 3% | -23%
CCCN(CC(=O)Nc1ccc(F)c(F)c1F)C(=O)C1=COCCO1
 : 5% | 1% | . | 1%[46.1 µM] | . | 2% | . | 2%
COCCn1c(-c2ccccc2)nc2c(c(=O)c3ccccc3n2C)c1=O
 : . | -3% | -3.7% | ? | 6% | -1% | 2% | .
COc1ccc(OC)c(/C=N/NC(=O)CCN2CCN(C(c3ccccc3)c3ccccc3)CC2)c1
 : 1% | ? | -17% | 10µM* | -5% | -25% | -5% | 0%
O=C(c1cc(-c2ccc(O)cc2)on1)N1CCN(c2ccccc2)CC1
 : 7% | ? | -11% | ? | -7% | -10% | -50% | ?
Cc1nn(Cc2ccccc2)c2ncccc12
 : -11% | 10% | . | 1% | . | 3% | 17% | 17%

# Single entries from the entries so far.
# Cc1nn(Cc2ccccc2)c2ncccc12 in StopGo reporter reads 17%
# COc1ccc(C2NC(=O)NC(C)=C2C(=O)OCc2ccccc2)cc1 (stereo not given) in RE007 growth inh reads 5%

# Following part.
# The line under a structure holds: RE007 growth inh | Lassa entry inh | Cruzain Triton | MARV entry inh | Cruzain inh noDet | SARS PLpro yeast | NS1 function inh | StopGo reporter
O=C(NCC1CCCO1)C1CC(=O)N(c2ccc(Cl)cc2)C1 (stereo not given)
 : 0% | 6%[46.1 µM] | . | ? | . | 1% | -1% | -6%
NNC(=O)CCS(=O)(=O)c1ccc2ccccc2c1
 : 10% | 15% | -0.8% | -1% | ? | 6% | 19% | 7%
COc1ccc(-c2nc(C#N)c(N3CCN(c4ccccc4)CC3)o2)cc1
 : 9% | -3% | -11% | 1% | -15% | 5% | -17% | -2%
CCc1cccc(NC(=O)CC2Oc3ccc(C)cc3NC2=O)c1 (stereo not given)
 : . | . | 1.8% | 18%[46.1 µM] | 5% | . | . | 5%
Cc1cc(C)c(S(=O)(=O)N2CCN(C(=O)CCn3nc(C)c(C)c3C)CC2)c(C)c1
 : -13% | . | . | ? | . | 0% | -15% | -27%
Cc1cc(C)n(C(=O)CNc2cccc(Cl)c2C)n1
 : -15% | 7% | 0.9% | 2%[46.1 µM] | -10% | 5% | -5% | -15%
CCOc1cc(CNCc2ccncc2)cc(Br)c1OCc1ccccc1F
 : -12% | ? | -1.3% | ? | 0% | -16% | -15% | ?
Cc1ccc(OCC(=O)NC(=S)Nc2cccc(NC(=O)c3ccc(Cl)cc3Cl)c2)cc1
 : 0% | 9% | -4.2% | 5% | ? | 6% | -1% | 0%
COc1ccc(-c2cccc(C(=O)N3CCOCC3)c2)cc1
 : 17% | 23% | . | ? | . | 6% | 2% | 67%[activator]
Nc1nnc(CC(=O)N/N=C/c2ccccc2OCc2ccc(F)cc2)s1
 : 4% | 19% | . | 12%[14.2 µM] | . | -5% | -4% | -27%
CCc1c(C)c2ccc(O)c(CN3CCN(c4ccccc4)CC3)c2oc1=O
 : . | ? | -6.5% | ? | -14% | . | . | ?
